Screening data from PubChem BioAssay.
PINK1 modulator = changes PINK1 expression. PINK1 immunofluorescence, high-content cytometry, 24 h. Potency, µM (doses to about 76.6 µM), for the others: top-dose activation (PINK1 increase), actives largely listed as activators. hit rate 0.2% among 410,000. AID 624263; active = well fitted activation curve with a large enough effect; inconclusive = small, poorly fitted or top-dose-only effect; inactive = flat fitted curve, though single readings scatter; cell line not stated here;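 also: % of control where 0% means no effect; nearly all actives have a fitted effect of over 65% in size; a mitochondrial uncoupler was the plate control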
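Compound titrations (5 concentrations, 24 h) on a stable cell line; DMSO and CCCP controls. Endpoint: fixed-cell PINK1 immunofluorescence with mitochondrial, cell and nuclear markers, scanned by microplate cytometer.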
An asterisk follows results filed as active; ? = inconclusive. Potency is read from the fitted curve at half-maximal effect.

entry	Molecule	PINK1 modulator
1	CCCCN(CC)CCNC(=O)C1CCN(c2nnc(C)c3c(C)n(-c4ccc(C)cc4)nc23)CC1	3.6%
2	COc1ccc(C(=O)c2c(N)c(C(=O)Nc3ccccc3Cl)c3ccccn23)cc1	1.2%
3	O=C(CSc1nc2c([nH]c3ccccc32)c(=O)n1-c1ccc(Cl)cc1)c1ccccc1	-4.6%
4	COc1ccc(NC(=O)CN2CCCN(Cc3ccc(Cl)cc3)S2(=O)=O)cc1Cl	1.4%
5	Cc1ccc2c(c1)c1c(c(=O)n(Cc3ccccc3)c(=O)n1Cc1cccc(F)c1)n2C	0.5%
6	C=C1C=C(C)n2ncc(C(=O)Nc3cccc4cnccc34)c2N1	1.8%
7	CC(=O)c1ccc(NC(=O)C(C)n2nc(-c3ccccc3)ccc2=O)cc1 (stereo unspecified)	0.4%
8	Cc1cc(C)c(/C=C/c2onc(C)c2S(=O)(=O)N2CCC(C(=O)NCc3ccco3)CC2)c(C)c1	-0.7%
9	COc1ccc(N2CCN(C(=O)Cn3cnc4sc(C)c(S(=O)(=O)N5CCC(C)CC5)c4c3=O)CC2)cc1	6.0%
10	Cc1ccccc1OCC(=O)NCC(=O)OCc1ccc2ccccc2c1	0.5%
11	COC(=O)c1sc(-c2ccccc2)cc1NC(=O)Nc1ccccc1Cl	4.5%
12	CCOc1ccccc1N(CC(=O)NCCSc1ccccc1)S(=O)(=O)c1ccccc1	-0.9%
13	CCOc1ccccc1CNC(=O)CN1C(=O)CCn2nc(-c3cn(C)c4ccccc34)cc21	3.8%
14	Cc1ccc(-c2cn3cccc(C)c3n2)cc1NS(=O)(=O)c1ccccc1	0.4%
15	Cc1cc(N2CCN(C)CC2)nc2ccc(NC(=O)c3ccc(C(C)(C)C)cc3)cc12	-1.7%

(further entries)
entry	Molecule	PINK1 modulator
16	COc1ccc(NC(=O)[C@H](Cc2ccccc2)N2Cc3ccccc3C2=O)cc1OC	4.0%
17	Cc1ccc(C)c(N2CCN(C(=O)CN3C(=O)CSc4c3c(C)nn4-c3ccccc3)CC2)c1	2.9%
18	COc1cccc(-c2cc(C(F)(F)F)nc(-n3nc(C)c(Br)c3C)n2)c1	3.3%
19	CCOc1ccc(NC(=O)CSc2c3c(nc4ccccc24)CCCC3)cc1	10.5%
20	CC(=O)Nc1ccc(NS(=O)(=O)c2ccc3c(c2)CC(C)N3C(=O)C2CCC2)cc1 (stereo unspecified)	3.4%
21	COc1ccc(NC(=O)c2c(NCc3cccs3)sc3c2CCCCC3)cc1	?
22	Cc1cccc(-n2c(=O)c3c4c(sc3n3c(C)nnc23)CCCC4)c1	4.1%
23	COc1ccc(CNC(=O)CCC(=O)N2CC3CCCN3c3ccccc32)c(OC)c1 (stereo unspecified)	3.6%
24	Cc1ccc(C2Nc3ccccc3-n3c(-c4ccccc4)c4c(=O)n(C)c(=O)n(C)c4c32)cc1 (stereo unspecified)	2.1%
25	CCC(NC(=O)Nc1cc(Cl)ccc1OC)c1c(-n2cccc2)sc2c1CCN(C)C2 (stereo unspecified)	0.8%
26	Brc1ccc(CN2CCc3nc(N4CCN(c5ncccn5)CC4)ncc3C2)cc1	0.6%
27	COc1ccc(Br)cc1C(=O)Nc1ccc(-c2nc3ncccc3o2)cc1C	-0.4%
28	CC(=O)Nc1ccc(Nc2ncnc3c2c(-c2ccccc2)cn3-c2ccc(C)c(Cl)c2)cc1	7.1%
29	CCC1CN(C(=O)N2CCC(C(=O)NCc3cccc(F)c3)CC2)c2cc(C)ccc2O1 (stereo unspecified)	-0.9%
30	CC1(C)C(=O)N(CC(=O)Nc2cccc(F)c2)c2ccc(S(=O)(=O)N3CCCCC3)cc21	2.9%

Additional results follow.
entry	Molecule	PINK1 modulator
31	Cc1ccc(Nc2c3c(nc4nncn24)CCC3)cc1C	1.3%
32	CC(=O)c1ccc(NC(=O)c2ccc(-c3nc(CSc4ccc(C)cc4)c(C)o3)cc2)cc1	0.7%
33	CCC(C)Sc1c(C(C)C)cnc2c1c(=O)n(C)c(=O)n2C (stereo unspecified)	5.1%
34	CCN1CCN(C(c2ccccc2)c2c(O)cc(C)n(Cc3ccco3)c2=O)CC1 (stereo unspecified)	1.2%
35	COc1ccc(NC(=O)Cn2nc(C)c3nn(-c4ccc(Cl)cc4)c(C)c3c2=O)cc1	-0.6%
36	CCOC(=O)c1ccc(NC(=O)Cc2ccc(-n3c(CC)nc4cccnc43)cc2)cc1	0.8%
37	O=C(Cc1ccc(Cl)cc1)Nc1ccc2nn(-c3ccccc3)nc2c1	10.5%
38	CC(C)OCCCNc1sc(S(=O)(=O)c2ccccc2)nc1S(=O)(=O)c1ccc(Cl)cc1	0.4%
39	CC(=O)c1ccc(N2CCN(C(=O)CCCCn3c(=O)[nH]c4ccccc4c3=O)CC2)cc1	0.3%
40	CCC1CCCCN1CCCNC(=O)c1c(C)oc2ncn(CC(C)C)c(=O)c12 (stereo unspecified)	1.9%
41	COc1ccc(-c2nnc(SC(C)C(=O)O)o2)cc1 (stereo unspecified)	-0.1%
42	COc1cc(Nc2nc(SCc3ccc(Cl)cc3)nc3ccccc23)cc(OC)c1	3.5%
43	O=C(Cn1nc(N2CCN(c3ccccc3)CC2)ccc1=O)NCc1ccccc1F	-0.5%
44	Cc1ccc2occ(CC(=O)Nc3c(C(=O)Nc4ccc(Cl)cc4)oc4ccccc34)c2c1	0.8%
45	O=S(=O)(c1ccccc1)c1nc(-c2cccs2)oc1N1CCCCC1	1.0%

Later entries:
entry	Molecule	PINK1 modulator
46	COc1cc(NC(=O)CCc2c(C)n(C)c3cc(-c4ccccc4C)nn3c2=O)cc(OC)c1OC	6.3%
47	CCOc1ccc(-n2nc3ccc(NC(=O)c4ccc(-c5cccc(Cl)c5)o4)cc3n2)cc1	0.9%
48	Cc1c(C(=O)NCC2(N3CCOCC3)CCCCC2)cnn1-c1nccc(-c2ccccc2F)n1	0.0%
49	CCOc1ccc(C(=O)c2cn(CC(=O)Nc3cc(OC)ccc3OC)c3cc(OC)c(OC)cc3c2=O)cc1	-0.4%
50	O=C(COc1ccc(F)cc1)Nc1ccc(S(=O)(=O)N(Cc2ccccc2)c2ccccc2)cc1	4.2%
51	CCOc1c(Cl)cc(C(=O)N(Cc2ccc(N(C)C)cc2)Cc2ccco2)cc1Cl	-0.8%
52	CCn1c(C(=O)NCc2cc(Br)ccc2OC)cc2oc3ccccc3c21	1.5%
53	CCOc1ccccc1C(=O)N(Cc1ccco1)Cc1ccccc1F	-0.4%
54	Cc1ccc(N2CCN(C(=O)c3cnn(-c4ccc(C)c(C)c4)c3C3CCNCC3)CC2)c(C)c1	-4.2%
55	CCc1ccc(NC(=O)N2CCC(N3CCN(Cc4ccc(C)cc4)C(=O)C3=O)CC2)cc1	2.1%
56	O=c1c2ccccc2n(Cc2cccc(Cl)c2)c(=O)n1Cc1ccccc1	1.5%
57	COc1ccc(N(C(=O)c2ccccc2C)S(=O)(=O)c2ccc(Cl)cc2)cc1	1.9%
58	CCOc1ccccc1CNS(=O)(=O)c1cnc(N)nc1	-1.3%
59	O=C(Cn1nc2c(cc1=O)CCCC2)NCc1ccccc1	7.5%
60	CCCN(CCC)C(=O)C1CCN(c2cc(C)nc3c(-c4ccc(Cl)cc4)c(C)nn23)CC1	0.5%

Carrying on.
entry	Molecule	PINK1 modulator
61	Cc1ccc(C(=O)c2c(N)c(C(=O)Nc3cccc(C(F)(F)F)c3)c3ccccn23)cc1	2.5%
62	CCOC(=O)c1cnc(NCc2ccccc2OC)c2ccccc12	2.1%
63	O=c1n(Cc2ccccc2)nc2n1-c1ccccc1OC2	0.4%
64	COc1cc(C2CC(=O)Nc3c2c(C)nn3-c2nncc(-c3ccccc3)n2)cc(OC)c1OC (stereo unspecified)	-1.3%
65	COc1cccc(NC(=O)c2c(-c3ccc(C)cc3)nnc3ccccc23)c1	3.4%
66	CCOc1ccccc1CNC(=O)c1[nH]c2ccccc2c1Sc1ccccc1	0.4%
67	CC(C)CCn1c(=O)c2cccnc2n(CC(=O)Nc2ccc(F)cc2)c1=O	-0.9%
68	COc1ccc(N2CCN(c3ncnc4onc(-c5ccc(F)cc5)c34)CC2)cc1	2.9%
69	Cc1cccc(C(=O)NCC(c2cccs2)S(=O)(=O)c2cccs2)c1 (stereo unspecified)	3.4%
70	Cc1c(C(=O)NCc2ccc(F)cc2)sc2nc(-c3ccc(F)cc3)cn12	11.6%
71	CC(=O)c1ccc(N2CCN(C(=O)C3CCN(S(=O)(=O)c4cccc5nonc45)CC3)CC2)cc1	4.5%
72	CCCc1nc2ccccc2n2c(-c3cccc(C)c3)c3c(=O)n(C)c(=O)n(C)c3c12	2.9%
73	CCC1CN(C(=O)Nc2cccc3c2CCCC3)c2cc(C)ccc2O1 (stereo unspecified)	1.0%
74	CCc1cccc(NS(=O)(=O)c2cc(-c3cnc(C)o3)ccc2OC)c1	-0.5%
75	COc1ccc(-c2nn(CC(=O)Nc3ccccc3F)c3c2cnc2ccc(F)cc23)cc1	2.9%

Other records
entry	Molecule	PINK1 modulator
76	COc1ccc(-c2c3c(=O)n(C)c(=O)n(C)c3cn2-c2cccc(N)c2)cc1	-0.5%
77	COc1cccc(-n2cc(C(=O)NCCc3ccc(C)cc3)c3ccccc3c2=O)c1	-1.1%
78	CCc1ccccc1NC(=O)C(=O)NCC(c1cccnc1)N1CCN(c2ccccc2F)CC1 (stereo unspecified)	0.4%
79	Cc1cnc(C)c(-c2ccc(F)c3c2OC(CNC(=O)Cc2c(C)[nH]c4ccccc24)C3)n1 (stereo unspecified)	0.2%
80	COc1ccc(/C=C/C(=O)Nc2ccc(C)cc2)cc1	3.2%
81	COc1cccc(C2(CC(=O)N3CCN(c4ccccn4)CC3)CC(=O)N(C3CCCC3)C2=O)c1 (stereo unspecified)	-1.2%
82	COc1cc(-c2nc3cccc(C)n3c2Nc2ccc3c(c2)OCCO3)ccc1O	-3.6%
83	COc1cc(C(=O)NCCc2csc(-c3ccc(Cl)cc3)n2)cc(OC)c1OC	2.2%
84	COc1ccc(C(=O)Nc2cc(-c3nc4ccccc4s3)ccc2OC)cc1	10.3%
85	CC(=O)Nc1cccc(NC(=O)CSc2cn(CC(=O)N(C(C)C)C(C)C)c3ccccc23)c1	-1.6%
86	COc1cc(NC(=O)Cn2nc(-c3ccc(C)c(C)c3)ccc2=O)cc(OC)c1	0.9%
87	Cc1cc2c(cc1NS(=O)(=O)c1cccc(C#N)c1)n(C)c(=O)c(=O)n2C	-0.5%
88	CCc1ccc(CNC(=O)c2cc(-c3ccc(Cl)s3)nc3ccccc23)cc1	-2.0%
89	CC(NC(=O)c1cccnc1)c1nnc2n1CCN(Cc1ccc(-c3ccccc3)cc1)CC2 (stereo unspecified)	1.7%
90	COc1cc(C(=O)CC2(O)C(=O)N(Cc3ccccc3Cl)c3ccccc32)cc(OC)c1OC (stereo unspecified)	6.2%

Reformatted with the structure last: part of the list above.
No. | PINK1 modulator | structure
84 | 10.3% | COc1ccc(C(=O)Nc2cc(-c3nc4ccccc4s3)ccc2OC)cc1
83 | 2.2% | COc1cc(C(=O)NCCc2csc(-c3ccc(Cl)cc3)n2)cc(OC)c1OC
78 | 0.4% | CCc1ccccc1NC(=O)C(=O)NCC(c1cccnc1)N1CCN(c2ccccc2F)CC1 (stereo unspecified)
88 | -2.0% | CCc1ccc(CNC(=O)c2cc(-c3ccc(Cl)s3)nc3ccccc23)cc1
82 | -3.6% | COc1cc(-c2nc3cccc(C)n3c2Nc2ccc3c(c2)OCCO3)ccc1O

Rewritten with each value named: entries from further up
89) CC(NC(=O)c1cccnc1)c1nnc2n1CCN(Cc1ccc(-c3ccccc3)cc1)CC2 (stereo unspecified)
  PINK1 modulator: 1.7%
78) CCc1ccccc1NC(=O)C(=O)NCC(c1cccnc1)N1CCN(c2ccccc2F)CC1 (stereo unspecified)
  PINK1 modulator: 0.4%

Later entries.
entry	Molecule	PINK1 modulator
91	O=C(Nc1cc(C(F)(F)F)ccc1Cl)c1noc2c1CCCCC2	8.8%
92	CN1C(=O)C2(SCC(=O)N2c2ccc(Cl)cc2)c2ccccc21 (stereo unspecified)	-1.5%
93	CCN(CC)S(=O)(=O)c1ccc2c(c1)N(CC(=O)Nc1c(C)cccc1C)C(=O)CO2	1.0%
94	CN1C(=O)C2CCCCN2c2ccc(C(=O)NCc3ccccc3Br)cc21 (stereo unspecified)	0.5%
95	COc1ccc(C)cc1NC(=O)c1oc2ccc(S(=O)(=O)N3CCOCC3)cc2c1C	-0.1%
96	Cc1ccc(CCNC(=O)C2CCCN(S(=O)(=O)c3ccc4c(c3)oc(=O)n4C)C2)cc1 (stereo unspecified)	2.1%
97	CCOc1ccccc1NC(=O)N1CCN(C)c2ncccc21	3.8%
98	CCc1ccc(CNC(=O)c2ccc3c(c2)nc2n3CCC(C)C2)cc1 (stereo unspecified)	0.9%
99	Cc1cccc(N2CCN(C(c3ccccc3)c3nnc(-c4ccccc4F)o3)CC2)c1C (stereo unspecified)	-0.7%
100	Cc1cccc(Cc2c(C)nc3nc(SCC(=O)NCc4ccccc4)nn3c2C)c1	6.0%
101	COc1ccc2occ(CC(=O)Nc3ccc(S(=O)(=O)Nc4nc(C)cc(C)n4)cc3)c2c1	0.2%
102	N#Cc1ccccc1NS(=O)(=O)c1ccc(N2CCCCS2(=O)=O)cc1	-0.7%
103	COc1ccc(OC)c(NC(=O)Cn2ccn(-c3ccc(F)cc3)c(=O)c2=O)c1	0.3%
104	CCCNc1ccc(-c2nc(-c3ccco3)no2)cc1[N+](=O)[O-]	1.6%
105	COc1ccccc1CNC(=O)CCc1c(C)nc2c(c(C)nn2-c2ccc(C)c(C)c2)c1C	-4.3%

Later entries:
entry	Molecule	PINK1 modulator
106	CCc1ccc(Cn2nnc(C(=O)Nc3ccc(C)cc3)c2N)cc1	-0.4%
107	Cc1cccc(CNC(=O)C(=O)Nc2ccccc2C)c1	6.0%
108	O=C(Nc1ccccc1)c1ccc2c(O)c(S(=O)(=O)c3ccc(Cl)cc3)c(=O)[nH]c2c1	-0.6%
109	Cc1cc(F)ccc1Nc1nc2ccccc2n2nnnc12	2.0%
110	CSc1ncc2c(n1)-c1ccccc1N(Cc1ccccc1C)S2(=O)=O	2.9%

Not all compounds are listed. The share of hits here may be higher or lower than overall.
